Six1-Eya2 blk – blocks human Six1 binding to Eya2; Q15475+O00167; AlphaScreen GST-Six1/His-Eya2 binding, biochemical; hits give low values; control for the full effect not named in the record; activity change, % (concentration not given with the values); actives 0.56% (n = 360,000); in the data active = activity change below about -65%; inconclusive = about -30% to -65%; inactive = above about -30%; also: % is scaled to controls: 0 for no effect and ±100 for the full control effect
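Compounds are tested against tagged Six1 and Eya2 proteins bridged by glutathione donor and nickel acceptor beads; after a one-hour incubation at 37 °C without light, AlphaScreen emission is recorded.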
PINK1 modulator – PINK1 expression modulation. PINK1 immunofluorescence, high-content cytometry, 24 h. Potency, µM (highest dose often 76.6 µM), for the others: top-dose activation (PINK1 increase), actives largely listed as activators. actives 0.2% (n = 410,000). AID 624263; active = well fitted activation curve with a large enough effect; inconclusive = small, poorly fitted or top-dose-only effect; inactive = flat fitted curve, though single readings scatter; cell line not stated here;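 also: potency is read from the fitted curve at half-maximal effect; % of control where 0% means no effect; nearly all actives have a fitted effect of over 65% in size; a mitochondrial uncoupler was the plate control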
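Decision-based qHTS: stable cells, 24 h exposure to five compound concentrations, CCCP as control. Fixed cells stained for PINK1 plus nuclear, mitochondrial and cell markers, cytometer read.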
TRPML1 blocker – blocks the human TRPML1 channel. TRPML1-inducible cells, Ca2+ dye fluorescence, FDSS; hits give low values; inhibition of EC80 agonist-evoked calcium signal. activity change, negative = inhibition, % (no concentration beside the values). actives 0.02% (n = 390,000); in the data active means activity change below about -50%; inconclusive means about -30% to -50%; inactive means above about -30%;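 also: stimulus is agonist 54-4 at its EC80 concentration; % is scaled to controls: 0 for no effect and ±100 for the full control effect; compound concentration not given in the record; the text of the record puts the active cut at -80%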
Target sequence (Q9GZU1 whole entry, looked up): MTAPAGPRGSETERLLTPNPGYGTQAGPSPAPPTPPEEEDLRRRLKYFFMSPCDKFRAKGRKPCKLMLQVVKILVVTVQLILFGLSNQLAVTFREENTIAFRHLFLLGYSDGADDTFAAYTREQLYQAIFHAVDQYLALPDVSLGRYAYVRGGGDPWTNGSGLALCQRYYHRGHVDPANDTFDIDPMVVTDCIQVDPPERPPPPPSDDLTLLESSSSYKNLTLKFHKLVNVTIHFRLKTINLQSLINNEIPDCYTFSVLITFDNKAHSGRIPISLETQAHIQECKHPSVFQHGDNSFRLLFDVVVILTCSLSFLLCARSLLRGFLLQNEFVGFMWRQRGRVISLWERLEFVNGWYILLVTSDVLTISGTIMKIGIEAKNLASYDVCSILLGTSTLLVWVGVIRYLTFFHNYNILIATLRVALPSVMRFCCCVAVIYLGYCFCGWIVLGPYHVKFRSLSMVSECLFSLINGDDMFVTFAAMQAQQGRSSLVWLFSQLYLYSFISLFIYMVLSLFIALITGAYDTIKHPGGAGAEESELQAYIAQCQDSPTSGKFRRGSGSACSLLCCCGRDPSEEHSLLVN
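Tet-induced TRPML1-DL cells loaded with Ca8 no-wash calcium dye were read kinetically on FDSS. Compound addition was followed by EC80 agonist 54-4 (4 uM final); inhibition was read over 110 s.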
D2 ag – activates the human D2 dopamine receptor | P14416 | actives 0.084% (n = 360,000) | DiscoveRx PathHunter D2 beta-arrestin, luminescence, 90 min; 100% = 57 uM dopamine signal | activation, % (no concentration beside the values); in the data active = activation above about 40%; inconclusive = about 15% to 40%; inactive = below about 15%; also: compound concentration not given in the record; the text of the record calls up to 30% inactive
Target sequence (P14416 whole entry, looked up): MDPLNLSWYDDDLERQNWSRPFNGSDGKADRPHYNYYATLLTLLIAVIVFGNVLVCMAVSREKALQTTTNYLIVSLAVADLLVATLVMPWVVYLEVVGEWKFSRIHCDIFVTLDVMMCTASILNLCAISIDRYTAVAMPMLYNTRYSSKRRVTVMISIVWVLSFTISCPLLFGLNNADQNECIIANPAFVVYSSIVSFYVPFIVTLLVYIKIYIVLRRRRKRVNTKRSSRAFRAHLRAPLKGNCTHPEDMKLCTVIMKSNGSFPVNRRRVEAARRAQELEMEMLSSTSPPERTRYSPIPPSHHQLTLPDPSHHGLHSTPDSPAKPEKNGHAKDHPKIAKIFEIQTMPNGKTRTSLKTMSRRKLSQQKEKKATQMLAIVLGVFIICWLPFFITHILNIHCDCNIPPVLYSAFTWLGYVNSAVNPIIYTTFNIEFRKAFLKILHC
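Agonist mode: compounds alone added to overnight-plated D2 PathHunter cells for 90 min at 37 C, with 57 uM final dopamine (EC100) defining full response. Beta-arrestin recruitment detected by chemiluminescent reagent, read after 1 h at ambient temperature.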
TRPML1 ag – activates the human TRPML1 channel. TRPML1-expressing cells, Ca2+ dye fluorescence, FDSS; host cell line not named in the record; reference of the full effect not given here. AID 624414. actives 0.12% (n = 410,000). activation, % (no concentration beside the values); in the data active = activation above about 50%; inconclusive = about 30% to 50%; inactive = below about 30%; also: 0% is about no effect; the text of the record puts the active cut at 80%
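Kinetic FDSS Ca2+ read in Tet-induced TRPML1-DL cells (ABD Ca8 dye plus quencher, 45-90 min RT loading): baseline, then compound, then 110 s agonist window; EC80 agonist 54-4 at 4uM final added afterwards for a 110 s antagonist window.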
CtBP-E1A blk – blocks the CtBP interaction with E1A. AlphaScreen GST-E1A/His-CtBP binding, 1536-well; hits give low values; control for the full effect not named in the record. activity change, % (no concentration beside the values). actives 0.49% (n = 340,000); in the data active means activity change below about -65%; inconclusive means about -30% to -65%; inactive means above about -30%; also: % is scaled to controls: 0 for no effect and ±100 for the full control effect; compound concentration not given in the record
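GST-E1A and His-tagged CtBP (125 nM each as 5X stock) were preincubated with pin-transferred compound for 2 h at 37 °C in the dark, then glutathione donor and nickel acceptor beads were added for 1 h before AlphaScreen reading.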
* marks the source's active call; other numbers are inactive results; ? = inconclusive; nt = not tested or not shown.

| cpd | canonical_smiles | Six1-Eya2 blk | PINK1 modulator | TRPML1 blocker | D2 ag | TRPML1 ag | CtBP-E1A blk |
| --- | --- | --- | --- | --- | --- | --- | --- |
| 1 | CN(c1cccc(NC(=O)CN2C(=O)c3ccccc3S2(=O)=O)c1)S(C)(=O)=O | -9 | 4.6% | 2 | -1.7 | 1.2 | 0 |
| 2 | CC(NC(=O)C1CCCN1C(=O)OC(C)(C)C)C(=O)OCc1ccccc1 (stereo unspecified) | 1 | 2.6% | nt | -5.2 | -0.4 | 8 |
| 3 | CCOC(=O)Cn1c(-c2ccccc2)ccc(C#N)c1=O | 33 | -0.9% | 2 | -6.0 | 0.1 | -16 |
| 4 | Cc1ccc(-c2nc3cccnc3s2)cc1NC(=O)c1ccco1 | 3 | nt | -6 | -1.1 | 0.3 | 0 |
| 5 | O=C(CSc1nc2c(c(=O)[nH]1)CCC2)Nc1ccc(F)cc1 | 9 | 1.0% | 6 | -2.1 | 1.2 | 4 |
| 6 | Cc1cc(OC(=O)c2ccccc2Br)cc(=O)n1C | ? | 6.0% | 6 | -2.5 | 0.5 | 1 |
| 7 | COc1cc2cncc(Cc3ccccc3)c2cc1O | -4 | -0.6% | 13 | -4.2 | 0.7 | 4 |
| 8 | C[C@H](CO)N1C[C@H](C)[C@@H](CN(C)S(=O)(=O)c2ccc(F)cc2)Oc2ccc(NC(=O)Cc3ccccc3)cc2C1=O | 4 | 0.7% | -2 | -0.1 | -0.8 | -2 |
| 9 | Cc1ccccc1N1CCN(S(=O)(=O)Cc2ccccc2)CC1 | 6 | -0.9% | 5 | -1.8 | 2.2 | 8 |
| 10 | O=C(NCCN1CCOCC1)c1ccc(NS(=O)(=O)c2ccccc2)cc1 | -1 | -0.4% | 6 | 3.1 | 1.1 | 2 |

Exported with each value named: entries from further up.
5) O=C(CSc1nc2c(c(=O)[nH]1)CCC2)Nc1ccc(F)cc1
  Six1-Eya2 blk = 9
  PINK1 modulator = 1.0%
  TRPML1 blocker = 6
  D2 ag = -2.1
  TRPML1 ag = 1.2
  CtBP-E1A blk = 4

10) O=C(NCCN1CCOCC1)c1ccc(NS(=O)(=O)c2ccccc2)cc1
  Six1-Eya2 blk = -1
  PINK1 modulator = -0.4%
  TRPML1 blocker = 6
  D2 ag = 3.1
  TRPML1 ag = 1.1
  CtBP-E1A blk = 2

8) C[C@H](CO)N1C[C@H](C)[C@@H](CN(C)S(=O)(=O)c2ccc(F)cc2)Oc2ccc(NC(=O)Cc3ccccc3)cc2C1=O
  Six1-Eya2 blk = 4
  PINK1 modulator = 0.7%
  TRPML1 blocker = -2
  D2 ag = -0.1
  TRPML1 ag = -0.8
  CtBP-E1A blk = -2

2) CC(NC(=O)C1CCCN1C(=O)OC(C)(C)C)C(=O)OCc1ccccc1 (stereo unspecified)
  Six1-Eya2 blk = 1
  PINK1 modulator = 2.6%
  TRPML1 blocker = nt
  D2 ag = -5.2
  TRPML1 ag = -0.4
  CtBP-E1A blk = 8

Continued.
| cpd | canonical_smiles | Six1-Eya2 blk | PINK1 modulator | TRPML1 blocker | D2 ag | TRPML1 ag | CtBP-E1A blk |
| --- | --- | --- | --- | --- | --- | --- | --- |
| 11 | CCOc1ccccc1NC(=O)CNC(=O)N1CC(=O)Nc2ccccc21 | 17 | -1.3% | -9 | 4.2 | -1.1 | 0 |
| 12 | O=C(Nc1ccc2oc(-c3ccncc3)nc2c1)c1ccco1 | -17 | -1.8% | -2 | 0.6 | -0.7 | -10 |
| 13 | CCCCn1c(=O)[nH]c(=O)c2c1nc(COc1ccc(C#N)cc1)n2CCC | 0 | 0.3% | 32 | -0.5 | -1.5 | 2 |
| 14 | CC1=C(C(=O)Nc2cccc(F)c2)C2(CCCCCC2)OC1=O | nt | 0.9% | -10 | nt | -0.3 | nt |
| 15 | O=C(Nc1cccc(C(F)(F)F)c1)C1CCCCC1 | 4 | 6.5% | -2 | -2.2 | 0.4 | 4 |
| 16 | COc1ccccc1NCC(=O)N/N=C(\C)c1cccs1 | 5 | -0.3% | 10 | 2.8 | 1.6 | 12 |
| 17 | N/C(=N\OC(=O)c1cnn(-c2ccccc2)c1C(F)(F)F)c1ccc(C(F)(F)F)cc1 | -1 | 2.7% | 1 | ? | -0.8 | -14 |
| 18 | O=C(C(=C1NCCN1)n1cncn1)c1ccccc1 | 1 | 2.5% | -15 | -6.5 | -0.2 | 1 |
| 19 | CCN(CC)CCN1CCn2c3c(c4cc(C)ccc42)CCCC31 (stereo unspecified) | -5 | 4.1% | 2 | 7.1 | 1.0 | nt |
| 20 | COc1ccc(CC(=O)OCC(=O)NCc2ccc(C)cc2)cc1OC | 5 | -0.6% | -2 | -0.4 | -0.3 | 3 |
| 21 | O=C(c1ccc(N2C(=O)C3CCCCC3C2=O)cc1)N1CCCCC1 (stereo unspecified) | 4 | -0.6% | 18 | -4.2 | 0.0 | 3 |
| 22 | CCOc1ccccc1OCCOc1ccccc1OC(C)C | 31 | -1.1% | -18 | -2.7 | 1.9 | 18 |
| 23 | O=C(NCCCO)c1cc([N+](=O)[O-])cc2c1C=Cc1ccccc1O2 | -1 | 0.1% | 5 | 12 | -0.2 | -6 |
| 24 | C/C(Cl)=C\CNC(C)c1ccccc1 (stereo unspecified) | 10 | -0.6% | -1 | -1.7 | -0.2 | 0 |
| 25 | COc1ccccc1N1CCN(Cc2cc(=O)n3ccsc3n2)CC1 | 1 | -0.3% | 24 | -0.9 | -0.1 | -4 |
| 26 | CCC(=O)NC(c1cccc([N+](=O)[O-])c1)c1c(O)ccc2ccccc12 (stereo unspecified) | 4 | 5.5% | 9 | -1.2 | 1.8 | -25 |
| 27 | CCCCSc1nnc(-c2c[nH]c3ccccc23)n1C | 2 | 1.3% | -4 | 11 | 0.7 | -20 |
| 28 | Cc1ccc2c(CN3CCCCC3C)cc(=O)oc2c1 (stereo unspecified) | 4 | -0.8% | -19 | -12 | -0.9 | 2 |
| 29 | CCOC(=O)C1=CCN(S(=O)(=O)c2ccccc2C(=O)OC)C1c1ccc(Cl)cc1 (stereo unspecified) | 5 | 0.8% | 80 | -3.3 | 3.2 | -1 |
| 30 | O=C(NC1CCS(=O)(=O)C1)c1ccc(-c2ccc(Br)cc2)o1 (stereo unspecified) | 0 | nt | 9 | -0.4 | 0.0 | -3 |
| 31 | Cc1nc2ccc(S(=O)(=O)NC(C(=O)N3CCC(C)CC3)C(C)C)cc2s1 (stereo unspecified) | 9 | -0.5% | -7 | -4.4 | 0.0 | 1 |
| 32 | O=C(c1cnccn1)N1CCCC(N2CCN(c3cccc(Cl)c3)CC2)C1 (stereo unspecified) | -6 | -1.0% | 4 | 5.2 | -0.5 | 1 |
| 33 | C#CCSc1nnc(-c2ccc(C)cc2)o1 | 13 | 3.6% | -6 | -0.1 | 1.4 | 4 |
| 34 | CCCCCCn1cc(C(=O)OCC)c(=O)c2cc(F)c(F)cc21 | 1 | 0.7% | 0 | 0.4 | 0.2 | 6 |
| 35 | CCCCN1C(=O)C2(NNc3ccccc3O2)c2ccccc21 (stereo unspecified) | -20 | 7.2% | 3 | -6.2 | 4.8 | -19 |
| 36 | COc1ccc(/C=N\N2CCN(Cc3ccccc3Cl)CC2)cc1 | -16 | 1.7% | nt | 4.0 | nt | nt |
| 37 | Cc1ccc(C(=O)OCCN(C)Cc2ccccc2)cc1 | 7 | 5.2% | 0 | -3.9 | 0.9 | nt |
| 38 | O=C(CSc1ccccn1)Nc1ccc(NC(=O)CSc2ccccn2)cc1 | 4 | 6.7% | -6 | -2.5 | 0.2 | 4 |
| 39 | CN1CCN(S(=O)(=O)NC[C@H]2O[C@@H](n3cnc4c(N)ncnc43)[C@H](O)[C@@H]2O)CC1 | 5 | 0.8% | 2 | -4.4 | 0.1 | -23 |
| 40 | COc1ccccc1NC(=O)c1oc2ccccc2c1NC(=O)c1c(F)cccc1F | nt | -0.4% | 14 | nt | -0.2 | nt |
| 41 | COc1ccc(CCN(C)C2CCCN(C(=O)c3ccnn3C)C2)cc1OC (stereo unspecified) | 7 | -0.5% | 35 | -3.6 | 0.8 | -7 |
| 42 | COc1cccc(C(=O)NC2=NCCS2)c1 | 6 | -1.2% | 21 | -1.9 | -0.6 | 2 |
| 43 | C=CCN1C(=O)C2C(C(=O)NC)C3(C)C=CC2(O3)C1C(=O)NCc1ccc(OC)cc1 (stereo unspecified) | 24 | -1.8% | 9 | -2.4 | -0.4 | 1 |
| 44 | Cc1ccc(CC(=O)Nc2ccc([N+](=O)[O-])cc2C)cc1 | 0 | -0.9% | -9 | -0.3 | -0.8 | 7 |
| 45 | O=C(c1ccc(-n2cccc2)cc1)N1CCN(Cc2ccccc2)CC1 | -23 | nt | -7 | -0.2 | 1.2 | -26 |
| 46 | COc1ccc2nc(SCC(=O)N(C)C3CCCCC3)c(C#N)cc2c1 | -1 | -2.9% | 77 | 0.0 | 2.1 | -14 |
| 47 | O=C(O/N=C(/c1ccccc1)c1ccncc1)c1ccccc1[N+](=O)[O-] | -28 | 1.9% | 3 | 12 | 2.8 | -2 |
| 48 | COc1ccccc1N1CCN(C(=O)CN(C)S(=O)(=O)c2ccc3c(c2)c(=O)n(C)c(=O)n3C)CC1 | -19 | 0.1% | 28 | -0.5 | 0.3 | ? |
| 49 | O=C(O)c1cccc(Cn2c(Cl)c(/C=N/NC(=O)c3ccccc3)sc2=O)c1 | -18 | -0.4% | -20 | -8.9 | -0.8 | -5 |
| 50 | O=C(CCS(=O)(=O)c1nc(-c2ccc3c(c2)OCO3)cc(C(F)(F)F)n1)Nc1ccc(F)c(Cl)c1 | nt | 6.4% | -12 | nt | 5.0 | nt |
| 51 | CCOc1ccc(N(CC(=O)Nc2ccccc2OC)S(C)(=O)=O)cc1 | 4 | 7.6% | -1 | 3.5 | -1.5 | nt |
| 52 | CCCN(CC(=O)Nc1ccc(Cl)cc1Cl)C(=O)/C=C/c1cc(OC)ccc1OC | 11 | 0.1% | 14 | 0.2 | 3.1 | 17 |
| 53 | Cc1ccc(-c2noc(CSc3nnnn3C3CCCCC3)n2)cc1 | 20 | 2.9% | -11 | -4.3 | 0.2 | 43 |
| 54 | Cc1cc(C)cc(NC(=S)/N=C(\N)Nc2nc(C)c3ccccc3n2)c1 | ? | 8.0% | -2 | -3.9 | 1.5 | 0 |
| 55 | CCN(c1ccc(OC)cc1)S(=O)(=O)c1cc(-c2cc(C)no2)ccc1OC | -2 | 1.7% | 1 | -0.5 | 1.2 | nt |
| 56 | O=c1c2c3c(sc2nc2n1CCCCC2)C(O)CCC3 (stereo unspecified) | -19 | 0.4% | -2 | -6.5 | -1.0 | 1 |
| 57 | COCCn1c(=NC(=O)/C=C/c2cccs2)sc2cc(NC(C)=O)ccc21 | 6 | 0.5% | 44 | -2.9 | -0.1 | -8 |
| 58 | Cc1c(C(=O)NCc2ccccc2C(F)(F)F)sc(=O)n1Cc1ccc(F)cc1 | -5 | -0.3% | nt | 3.4 | 1.9 | 1 |
| 59 | O=C(CSc1nc2ncccc2o1)Nc1cccc(C(F)(F)F)c1 | nt | -1.0% | 1 | nt | 0.5 | nt |
| 60 | NC(=O)Cn1c(=O)n(CCC(=O)NCCSCc2ccccc2)c(=O)c2ccccc21 | 7 | 1.3% | -4 | -3.6 | 0.5 | nt |
| 61 | CCN1C(=O)[C@@H]2[C@@H](c3ccc(-c4ccc5c(c4)OCO5)c(OC)c3)N3CCC[C@@]3(C(=O)OC)[C@@H]2C1=O | -12 | 1.4% | 8 | 0.4 | -0.6 | 2 |

Screens from PubChem.
